Screens (PubChem BioAssay)
AID923: qHTS Assay for Allosteric/Competitive Inhibitors of Caspase-1: Spectroscopic Profiling in AFC Spectral Region; compound fluorescence, AFC spectral region (405/520 nm); almost no hit is shown here; Potency, µM (top dose mostly 57.5 µM), inactives show at the top dose fluorescence increase, usual class: activators; 75,000 tested, 1.1% active; active means well fitted activation curve with a large enough effect;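 further: 0% is about no effect; scaled to a free AFC standard on each plate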
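Titrations up to 57 uM read every 20 sec for 3 min (405/520 nm) with 50 nM caspase 1 and 5 uM Ac-WEHD-AFC, pH 7.5 HEPES buffer. Fluorescence-vs-time intercept gave baseline, scaled against on-plate AFC standard.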
Numbers without * were called inactive; & = joins results of further samples; [ ] = dose if it differs, or a comment. Potency means the concentration at half of the fitted maximal effect. Only part of the results is shown. The share of hits here may be higher or lower than overall.

molecule | AID923
CCCCOCCCNC(=O)COc1ccccc1 | -1.2%
COc1ccccc1N(CC(N)=O)S(=O)(=O)c1ccc(C)cc1 | -0.7%
C=CCCCCCCCCCCCC(O)CC(O)CO (stereo not drawn) (tested in a mixture with another compound) | 0.1%
O=C(NCc1cccnc1)NC1(C(F)(F)F)Oc2ccc(Cl)cc2O1 (stereo not drawn) | -2.5%
Cc1ccc(C)c(N2CCN(C(=O)c3cc4ccccn4n3)CC2)c1 | -2.4%
COC(=O)c1ccc(CN2[C@@H]3C[C@@H](O)CC[C@@H]3C[C@H]2C(=O)OC)cc1 | 4.5%
Cn1c(=O)[nH]c(=O)c2c1nc(N(CCO)Cc1ccccc1)n2CCCc1ccccc1 | -1.6%
CCOC(=O)c1c(C)cc(O)c(C)c1O | 0.7%
CCCN1C[C@H](CSC)C[C@@H]2c3cccc4[nH]cc(c34)C[C@H]21 | -0.9%
COC(=O)[C@@H]1C[C@@]2(O)[C@@H](O)[C@@H](O)[C@@H](O)C[C@H]2N1Cc1ccc(Cl)cc1 | -1.4%
OC[C@H]1O[C@@H](n2cnc3c(NCCc4ccccc4)ncnc32)[C@H](O)[C@H]1O | -0.4%
CC(=O)O[C@@]1(C(C)=O)CCC2C3CC(C)C4=CC(=O)CC[C@@]4(C)C3CC[C@]21C (stereo partly drawn) | 1.4%
C=C1CCC(OC(C)=O)/C(C)=C/CC2[C@H]1CC2(C)C (stereo partly drawn) | -0.6%
CCCCCCCCCCCCC[N+](C)(C)Cc1ccccc1 | 0.3%
CCC1=C2CC[C@H]3C(=O)NC(=O)[C@H]3[C@H]2[C@@]2(Cc3ccccc3)C(=NCC(=O)OC)OC(=O)N2C1=O | -1.6%

(listing goes on)
molecule | AID923
CCC1=C(OC(=O)N(CC)CC)N2C(=O)OC(=NCC(=O)OC)[C@]2(Cc2ccccc2)[C@H]2C1=CC[C@H]1C(=O)N(CC(=O)OC)C(=O)[C@H]12 | -2.6%
CN1CCc2cccc3c2C1Cc1ccc(O)c(O)c1-3 (stereo not drawn) | 0.7%
O=C(CCSCCC(=O)NCc1cccs1)NCc1cccs1 | 1.3%
CC(=O)O[C@](C)(CCC=C(C)C)C1CC=C(C)CC1 (stereo partly drawn) | -0.7%
CN1C[C@@H]2C(c3ccccc3)C3(c4ccc(C#N)cc4)CC2(C3)[C@H]1c1ccccc1 (stereo partly drawn) | -1.4%
Cc1c(C(=O)OC2CCCC2)[nH]c2c1C(=O)CC(c1ccco1)C2 (stereo not drawn) | -1.5%
CC(C)Oc1ccc2c(=O)cc(-c3ccccc3)oc2c1 | -2.5%
CC(=O)Oc1ccc2c(c1)CCC1C2CC[C@@]2(C)C1CC(OC(C)=O)C2OC(C)=O (stereo partly drawn) | -0.7%
Cc1cc(C)n(C(=O)CCN2C(=O)c3ccccc3C2=O)n1 | 3.1%
C[C@]12CCC3c4ccc(O)cc4CCC3C1CCC2OC(=O)CCC1CCCC1 (stereo partly drawn) | -0.2%
COc1ccc(/C=C/C(=O)c2ccc(O)cc2O)cc1OC | -2.8%
Cc1ccc(S(=O)(=O)NC(=O)NN2CC3CCCC3C2)cc1 (stereo not drawn) | -3.5%&1.2%
COC(=O)[C@@H]1C[C@@]2(O)[C@H](O)[C@H](O)[C@H](O)C[C@H]2N1Cc1ccc(-c2ccccc2)cc1 | -2.9%
COC(=O)c1cccc(C23CC4(C2)[C@H](CN(CC2CCCCC2)[C@@H]4c2ccccc2)C3c2ccccc2)c1 (stereo partly drawn) | -0.3%
CC1=C(CCC(=O)O)c2cc3nc(cc4[nH]c(cc5[nH]c(cc1n2)c(C)c5C(C)O)c(C)c4C(C)O)C(C)=C3CCC(=O)O (stereo not drawn) | 0.5%

New compounds follow:
molecule | AID923
OC[C@H]1O[C@@H](n2cnc3cncnc32)[C@H](O)[C@@H]1O | -1.3%
COc1cccc(C(=O)Nc2cccc(NC(C)=O)c2)c1 | 2.1%
CC(C)OCCCNS(=O)(=O)c1ccc2c(c1)oc(=O)n2C | -0.8%
Nc1cc(=O)[nH]c(=O)n1Cc1ccccc1 | -0.9%
CCCNC(C)C(=O)Nc1ccccc1C (stereo not drawn) | 0.5%
COC(=O)c1ccc(C23CC4(C2)[C@H](CN(Cc2ccc(C(F)(F)F)cc2)[C@@H]4c2ccccc2)C3c2ccccc2)cc1 (stereo partly drawn) | 1.5%
CCCCCOC(=O)c1[nH]c2c(c1C)C(=O)CC(c1ccco1)C2 (stereo not drawn) | -0.1%
O=C1[C@@H]2[C@H]3[C@H](O)[C@H](O)C/C(=N/OC[C@@H](O)COCc4ccco4)[C@@H]3CC[C@H]2C(=O)N1c1ccc(F)cc1F | -1.0%[11.5 µM]
COC(=O)C1=C(C)N=c2s/c(=C3\C(=O)Nc4ccccc43)c(=O)n2C1c1ccccc1 (stereo not drawn) | -5.3%
CC1(C)OC2C(CO)OC(n3cnc4c(=O)[nH]c(N)nc43)C2O1 (stereo not drawn) | -1.4%
CC(=O)OC1CCC2(C)C(=CCC3C2CCC2(C)C3C[C@@H]3O[C@]32C(C)=O)C1 (stereo partly drawn) | 1.4%
COC(=O)C(Cc1ccccc1)NC(=O)C(N)CC(=O)O (stereo not drawn) | 0.9%
CC(C(=O)O)c1ccc2c(c1)[nH]c1ccc(Cl)cc12 (stereo not drawn) | -3.1%
CC(C)=CCc1c(O)cc(C)oc1=O | 0.1%
CCC1=C2CC[C@H]3C(=O)N(c4ccccc4)C(=O)[C@H]3[C@H]2[C@@]2(Cc3ccccc3)C(=NCCOC)OC(=O)N2C1=O | -2.0%

Further entries:
molecule | AID923
COc1ccc(NC(=O)Nc2ccc3nccnc3c2)cc1 | 0.1%
O=C(O)CCC(=O)OC[C@@H](NC(=O)C(Cl)Cl)C(O)c1ccc([N+](=O)[O-])cc1 (stereo partly drawn) | -0.4%
C=C1CCC2C(CC2(C)C)C(=O)CCC1O (stereo not drawn) | -1.7%
Cc1cc(OCc2ccc(F)cc2)nc(-c2ccccc2O)n1 | 0.3%
CCCC(=O)n1nc(-c2ccco2)nc1SCc1ccccc1 | -2.8%
COC(=O)Cn1c(CN2CCN(c3ccc(F)cc3)CC2)nc2c1c(=O)n(C)c(=O)n2C | 3.8%
CC(C)C1=CC2=CC[C@@H]3[C@](C)(CO)CCC[C@]3(C)C2CC1 (stereo partly drawn) | -1.4%
Cc1ccc(-c2oc3ccccc3c(=O)c2O)cc1 | 4.6%
OCC1O[C@H](O[C@H]2C(O)C(O)C(O)O[C@@H]2CO)C(O)C(O)C1O (stereo partly drawn) | 1.1%
O=C(c1ccccc1)c1ccc(N2CCOCC2)c(F)c1 | 1.0%
N#Cc1ccc(C23CC4(C2)[C@H](CN(Cc2ccc(-c5ccccc5)cc2)[C@@H]4c2ccccc2)C3c2ccccc2)cc1 (stereo partly drawn) | -1.0%
Cc1ccc(S(=O)(=O)NC(=O)Nc2cc(C)ccc2F)cc1 | 2.2%
CC(C)=CCc1c(O)cc2oc(C)cc(=O)c2c1O | 0.1%
COc1ccc(C(C)=O)c(O)c1 | -3.3%
O=C(C(c1ccccc1)c1ccccc1)N1CCN(Cc2ccncc2)CC1 | 0.5%

As entered above.
Value for CC(C)C1=CC2=CC[C@@H]3[C@](C)(CO)CCC[C@]3(C)C2CC1 (stereo partly drawn) in AID923: -1.4%
Value for Cc1ccc(S(=O)(=O)NC(=O)Nc2cc(C)ccc2F)cc1 in AID923: 2.2%
Value for N#Cc1ccc(C23CC4(C2)[C@H](CN(Cc2ccc(-c5ccccc5)cc2)[C@@H]4c2ccccc2)C3c2ccccc2)cc1 (stereo partly drawn) in AID923: -1.0%

Continued:
molecule | AID923
CN1C(=O)C(O)(C2COC(C)(C)CC2=O)c2ccccc21 (stereo not drawn) | -0.8%
O=C(Nc1ccc2c(c1)OCO2)C(c1ccccc1)N1CCCCC1 (stereo not drawn) | -3.7%
CN1C[C@@H]2C(c3ccccc3)C3(c4cccnc4)CC2(C3)[C@H]1c1ccccc1 (stereo partly drawn) | 1.3%
CCCCCC(C)N (stereo not drawn) | -1.4%
Nc1ncnc2c1[nH]c(=O)n2C1OC(CO)C(O)C1O (stereo not drawn) | 3.1%
COC1C(O)C(O)C(O)C(O)C1O (stereo not drawn) | 1.3%
Cc1sc(NC(=O)C2CCCO2)c(C#N)c1C (stereo not drawn) | 3.8%
CCOC(=O)c1c(C)cc(O)cc1O | -2.0%
COc1ccc(S(=O)(=O)N(CC(=O)NCCCN(C)C)c2ccc(C)cc2)cc1OC | 1.0%
CCCCCN(CCCCC)C(=O)C(CCC(=O)O)NC(=O)c1ccc(Cl)c(Cl)c1 (stereo not drawn) | -1.2%
O=C(O)CCCC(=O)N1CCN(c2cccc(Cl)c2)CC1 | 3.5%
Cc1cc(=O)oc2c(O)c(O)ccc12 | 5.3%
CC(C)CCCC(C)C1CCC2C3CC(O)[C@@]4(O)CC(O)CC[C@@]4(C)C3CC[C@@]12C (stereo partly drawn) | -0.3%
Cc1cc(O)c2c(c1O)C(=O)c1c(O)cc(C)c(O)c1C2=O | -0.4%
C#C[C@]1(O)CCC2C3CCC4=Cc5oncc5C[C@@]4(C)C3CC[C@@]21C (stereo partly drawn) | 0.7%

By substructure: the compounds so far with a cyano group.
molecule | AID923
CN1C[C@@H]2C(c3ccccc3)C3(c4ccc(C#N)cc4)CC2(C3)[C@H]1c1ccccc1 (stereo partly drawn) | -1.4%
N#Cc1ccc(C23CC4(C2)[C@H](CN(Cc2ccc(-c5ccccc5)cc2)[C@@H]4c2ccccc2)C3c2ccccc2)cc1 (stereo partly drawn) | -1.0%
Cc1sc(NC(=O)C2CCCO2)c(C#N)c1C (stereo not drawn) | 3.8%

New compounds follow:
molecule | AID923
O=C1OC(CO)C(O)C(O)C1O (stereo not drawn) | -0.9%
CC(=O)Oc1cc(-c2coc3cc(OC(C)=O)c(OC(C)=O)c(OC(C)=O)c3c2=O)cc(OC(C)=O)c1OC(C)=O | -0.4%
COc1ccc(C2OC3C(CO)OC(n4cnc5c(=O)[nH]c(N)nc54)C3O2)cc1 (stereo not drawn) | 1.3%
O=[N+]([O-])c1ccc(-c2nc(-c3ccc(F)cc3)c(-c3ccncc3)[nH]2)cc1 | 5.2%
CC(C)C(NC(=O)C12CC3CC(CC(C3)C1)C2)C(=O)NC1=NCCS1 (stereo not drawn) | -2.2%
COc1cc(O)c(C(=O)/C=C/c2ccccc2)c(OC)c1 | -1.2%
CCc1ccccc1NC(=O)CSc1ncn[nH]1 | 18.7%
COC(=O)c1ccc(C23CC4(C2)[C@H](CN(Cc2ccc(-c5ccccc5)cc2)[C@@H]4c2ccccc2)C3c2ccc(C(F)(F)F)cc2)cc1 (stereo partly drawn) | 1.8%
COc1ccc2cc1Oc1ccc(cc1)C[C@H]1c3cc(c(OC)cc3CCN1C)Oc1c(OC)c(OC)cc3c1[C@H](C2)N(C)CC3 | -1.4%
CC1(C)[C@@H](O)CC[C@]2(C)C3C(=O)C=C4C5C[C@@](C)(C(=O)O)CC[C@]5(C)CC[C@@]4(C)[C@]3(C)CC[C@@H]12 (stereo partly drawn) | -2.8%
CCC(=O)OC1C2CC3=C4CC(=O)OC(c5ccoc5)[C@]4(C)CCC3[C@@](C)(C2=O)C(CC(=O)OC)C1(C)C (stereo partly drawn) | -0.3%
CC[C@H]1OC(=O)[C@H](C)[C@@H](O[C@H]2C[C@@](C)(OC)[C@@H](O)[C@H](C)O2)C(C)[C@@H](O[C@@H]2O[C@H](C)C[C@H](N(C)C)[C@@H]2O)[C@](C)(OC)C[C@@H](C)C(=O)[C@H](C)[C@@H](O)[C@]1(C)O (stereo partly drawn) | -1.0%
C=C1CCC2[C@](C)(CO)C(O)CC[C@]2(C)C1C/C=C1/C(=O)OCC1O (stereo partly drawn) | -3.1%
COc1c2ccoc2cc2oc(C)cc(=O)c12 | 3.8%
CC1(C)OC2CO[C@]3(COS(N)(=O)=O)OC(C)(C)OC3C2O1 (stereo partly drawn) | 1.3%

Additional entries:
molecule | AID923
O=C(C(Cc1ccccc1)n1cccc1)N1CCCCC1 (stereo not drawn) | -1.8%
CC1CCC2C(C)(C)C3CC12CC[C@]3(C)O (stereo partly drawn) | -4.6%
CN1C[C@@H]2C(c3ccc(C(F)(F)F)cc3)C3(c4ccccc4)CC2(C3)[C@H]1c1ccccc1 (stereo partly drawn) | -3.1%
CCCC(=O)Nc1cc(C)c2c(=O)oc3ccccc3c2n1 | -2.6%
CCOc1ccc(N(CC(=O)NCc2ccccc2)S(=O)(=O)c2c(C)noc2C)cc1 | -2.3%
FC(F)(F)c1ccc(C2[C@H]3CN(Cc4ccc(-c5ccccc5)cc4)[C@H](c4ccccc4)C34CC2(c2cccnc2)C4)cc1 (stereo partly drawn) | -0.9%
O=c1c2cc(-c3ccccc3)sc2ncn1/N=C/c1ccco1 | 2.4%
NCC1OC(OC2C(N)CC(N)[C@@H](O)[C@@H]2OC2O[C@H](CO)[C@@H](O[C@@H]3OC(CN)C(O)C(O)C3N)C2O)C(N)C(O)C1O (stereo partly drawn) | -0.5%
COc1ccc(-c2coc3cc(O)ccc3c2=O)c(O)c1O | -2.3%
COc1ccc(-c2c(O)c3c(OC)c4c(cc3oc2=O)OC(C)(C)C=C4)cc1 | -7.2%
Cc1c(C(=O)OC2CCCC2C)[nH]c2c1C(=O)CCC2 (stereo not drawn) | 1.6%
Cc1oc(-c2ccccc2F)nc1CS(=O)(=O)CC(=O)N1CCc2ccccc21 | -2.8%
O=C(Nc1ccc2c(c1)oc1ccccc12)c1ccc(Br)o1 | 3.0%
Cc1cc(C)n(CC(O)CN2c3ccccc3Sc3ccccc32)n1 (stereo not drawn) | 1.4%
Nc1nc2c(ncn2C2OC(COC(=O)c3ccccc3)C(OC(=O)c3ccccc3)C2OC(=O)c2ccccc2)c(=O)[nH]1 (stereo not drawn) | -1.0%

2 entries drawn at random from those above:
molecule | AID923
COc1ccc(-c2c(O)c3c(OC)c4c(cc3oc2=O)OC(C)(C)C=C4)cc1 | -7.2%
CC1CCC2C(C)(C)C3CC12CC[C@]3(C)O (stereo partly drawn) | -4.6%
